TRPML1 agonist – qHTS for Agonists of the Human Mucolipin Transient Receptor Potential 1 (TRPML1); Mucolipin-1 (Homo sapiens), Q9GZU1; TRPML1-expressing cells, Ca2+ dye fluorescence, FDSS; host cell line not named in the record; reference of the full effect not given here; activation, % (test concentration not listed); actives 0.12% (n = 410,000); AID 624414, 2012; in the data active = activation above about 50%; inconclusive = about 30% to 50%; inactive = below about 30%; note: 0% is about no effect; the text of the record puts the active cut at 80%
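In this qHTS format, compounds were pin-transferred onto Ca8-dye-loaded TRPML1-DL cells induced with Tet overnight, and intracellular Ca2+ fluorescence was recorded kinetically for 110 s after a 10 s baseline. A subsequent 4uM final 54-4 (EC80) addition followed by a second 110 s read served as the antagonist phase.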
D2 PAM – Beta-Arrestin HTS for Positive Allosteric Modulators of the Human D2 Dopamine Receptor: Potentiators | D(2) dopamine receptor (Homo sapiens), P14416 | DiscoveRx D2 beta-arrestin cells, luminescence, 90 min; 100% = 57 uM dopamine signal | potentiation, % (concentration not given with the values) | actives 0.23% (n = 360,000) | AID 624464, 2012; active = potentiation of 50% or more; inconclusive = 30% to 50%; inactive = 30% or less;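 note: compound concentration not given in the record; tested on top of an EC20 dose of dopamine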
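PathHunter D2 cells, attached overnight at 37 deg C, received compound in DMSO plus dopamine at EC20 (50 nM final) for 90 min at 37 deg C. Beta-arrestin recruitment was read as luminescence after 1 h with detection reagent at ambient temperature.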
D2 agonist – Beta-Arrestin HTS for Positive Allosteric Modulators of the Human D2 Dopamine Receptor: Agonists; DiscoveRx PathHunter D2 beta-arrestin, luminescence, 90 min; 100% = 57 uM dopamine signal; activation, % (no concentration beside the values); actives 0.084% (n = 360,000); in the data active = activation above about 40%; inconclusive = about 15% to 40%; inactive = below about 15%; note: compound concentration not given in the record; the text of the record calls up to 30% inactive
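Agonist mode: compounds alone added to overnight-plated D2 PathHunter cells for 90 min at 37 C, with 57 uM final dopamine (EC100) defining full response. Beta-arrestin recruitment detected by chemiluminescent reagent, read after 1 h at ambient temperature.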
PINK1 modulator – A Quantitative High throughput Screen to Identify Chemical Modulators of PINK1 Expression | AID 624263, 2012 | Potency, µM (doses to about 76.6 µM), inactives show top-dose activation (PINK1 increase), usual class: activators | actives 0.2% (n = 410,000) | PINK1 immunofluorescence, high-content cytometry, 24 h; active = well fitted activation curve with a large enough effect; inconclusive = small, poorly fitted or top-dose-only effect; inactive = flat fitted curve, though single readings scatter; cell line not stated here;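 note: potency is the fitted concentration of half-maximal effect; % of control where 0% means no effect; nearly all actives have a fitted effect of over 65% in size; a mitochondrial uncoupler was the plate control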
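Stable cell line treated 24 h with compounds at 5 concentrations (CCCP controls), then fixed and immunostained for PINK1 plus nuclear and cell stains; PINK1 immunofluorescence quantified by laser-scanning microplate cytometry.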
TRPML1 blocker – qHTS for Inhibitors of the Human Mucolipin Transient Receptor Potential 1 (TRPML1) | activity change, negative = inhibition, % (no concentration beside the values) | Mucolipin-1 (Homo sapiens), Q9GZU1 | AID 624415, 2012 | actives 0.02% (n = 390,000) | TRPML1-inducible cells, Ca2+ dye fluorescence, FDSS; stronger effect = lower value; inhibition of EC80 agonist-evoked calcium signal; in the data active means activity change below about -50%; inconclusive means about -30% to -50%; inactive means above about -30%;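 note: stimulus is agonist 54-4 at its EC80 concentration; % is set by controls: 0 for no effect and ±100 for the full control effect; compound concentration not given in the record; the text of the record puts the active cut at -80%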
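Calcium fluorescence in TRPML1-DL cells induced overnight with Tet: a 110 s read after compound pin addition, then a 110 s antagonist read after challenge with 54-4 at 4 uM final (EC80).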
Six1-Eya2 blk – qHTS Assay for Inhibitors of the Six1/Eya2 Interaction. AlphaScreen GST-Six1/His-Eya2 binding, biochemical; stronger effect = lower value; control for the full effect not named in the record. activity change, % (concentration not given with the values). actives 0.56% (n = 360,000). AID 651725, 2012; in the data active = activity change below about -65%; inconclusive = about -30% to -65%; inactive = above about -30%; note: % is set by controls: 0 for no effect and ±100 for the full control effect
Target sequence (O00167 whole entry, looked up): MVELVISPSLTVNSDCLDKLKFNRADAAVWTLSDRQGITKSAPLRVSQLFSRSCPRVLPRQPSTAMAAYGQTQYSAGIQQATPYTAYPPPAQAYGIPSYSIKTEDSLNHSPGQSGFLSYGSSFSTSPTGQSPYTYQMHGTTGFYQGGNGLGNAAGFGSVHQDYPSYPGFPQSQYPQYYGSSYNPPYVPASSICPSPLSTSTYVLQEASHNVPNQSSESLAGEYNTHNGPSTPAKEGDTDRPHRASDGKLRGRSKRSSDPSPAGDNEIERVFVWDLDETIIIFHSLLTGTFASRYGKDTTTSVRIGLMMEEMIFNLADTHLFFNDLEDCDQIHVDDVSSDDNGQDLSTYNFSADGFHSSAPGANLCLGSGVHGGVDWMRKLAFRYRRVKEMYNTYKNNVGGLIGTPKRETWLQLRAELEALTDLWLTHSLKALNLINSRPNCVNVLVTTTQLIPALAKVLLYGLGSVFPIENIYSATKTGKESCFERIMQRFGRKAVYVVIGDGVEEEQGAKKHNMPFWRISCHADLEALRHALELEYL
Target sequence (Q15475 whole entry, looked up): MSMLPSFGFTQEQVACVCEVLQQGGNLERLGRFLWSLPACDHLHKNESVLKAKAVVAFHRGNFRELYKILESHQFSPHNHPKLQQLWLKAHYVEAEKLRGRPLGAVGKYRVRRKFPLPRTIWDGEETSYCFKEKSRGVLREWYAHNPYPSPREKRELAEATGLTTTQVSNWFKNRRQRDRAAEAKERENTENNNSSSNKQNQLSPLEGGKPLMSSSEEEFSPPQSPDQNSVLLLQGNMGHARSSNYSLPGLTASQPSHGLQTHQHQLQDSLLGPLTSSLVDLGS
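AlphaScreen with GST-Six1 and His-Eya2 (5X mix: 250 nM and 500 nM), glutathione donor and nickel acceptor beads; buffer 50 mM Tris pH 8.0, 300 mM NaCl, 1 mM TCEP; 1 h at 37 C in the dark.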
Numbers without * were called inactive; ? = inconclusive; · = not tested or not shown; & = joins results of further samples; [ ] = another dose, or the depositor's remark.

SMILES	TRPML1 agonist	D2 PAM	D2 agonist	PINK1 modulator	TRPML1 blocker	Six1-Eya2 blk
Cc1c(OC(C)C(=O)NCCN2CCOCC2)ccc2c3c(c(=O)oc12)CCC3 (stereo unspecified)	-0.1	-5	2.0	-0.3%	5	0
CCc1nc2nc(C)c(NS(=O)(=O)c3ccc(CC(C)C)cc3)c(=O)n2[nH]1	1.6	0	4.6	-2.6%	-15	6
CCSCc1nnc(SCC(=O)Nc2ccc(F)cc2)n1CC	0.0	-6	-2.4	0.7%	11	12
N#C/C(=C\c1ccc(Cl)cc1)C(=O)NCC1CCCO1 (stereo unspecified)	1.0	·	·	-0.2%	12	·
CCCn1cc(S(=O)(=O)c2ccc(C)cc2)c(=O)c2cc(OC)c(OC)cc21	-0.3&-1.1	-5	4.2	0.6%&-1.6%	3&1	-10
N/C(=N\OC(=O)c1ccc(Cl)cc1Cl)c1cccnc1	0.0	9	50*	-0.1%	-18	0
O=C(CSc1nccn1Cc1ccc(F)cc1)NCc1ccc(F)cc1	-0.2	·	·	-4.4%	-4	·
COc1cc(OC)cc(-c2c(C#Cc3ccsc3)c3cc(-c4cccc5[nH]cc(C=O)c45)ccc3n2C)c1	0.0	-14	-0.2	1.9%	-14	-3
COc1ccc(CNC(=O)C2CC(c3ccc(C(F)(F)F)cc3)=NO2)cc1 (stereo unspecified)	1.2	-5	-3.6	-0.5%	-6	4
COc1ccc(NC(=O)CN(C)CC(=O)Nc2ccc(Cl)c(S(=O)(=O)N(C)C)c2)cc1	-0.6	-2	0.6	5.8%	-6	-4
CCOc1ccc(N2CC(C(=O)NC(C)C)CC2=O)cc1 (stereo unspecified)	0.1	5	0.9	-1.7%	10	11
Cc1onc(-c2c(F)cccc2Cl)c1C(=O)Nc1cc(S(=O)(=O)N2CCCCC2)ccc1O	2.5	-1	-0.3	16µM*	-19	-2
COc1ccccc1C/C(N)=N/OC(=O)c1ccco1	1.8	6	14	0.2%	0	1
Cc1cc(C)c(S(=O)(=O)c2ccc(Cl)cc2)c(Cl)n1	1.6	-2	2.0	0.8%	13	10
CNC(=S)N/N=C/c1cn(Cc2ccc(F)cc2)c2ccccc12	1.4	22	0.6	3.4%	43	-12
CCN(CCn1cccn1)C(=O)c1ccc2nc(Cc3ccc(OC)cc3)oc2c1	-0.7	-11	-4.9	0.9%	3	-1
CCCCN(C)C(=O)c1ccc2c(c1)S(=O)(=O)c1ccccc1C2=O	0.4	14	3.2	0.5%	48	-4
CC(=O)Nc1ccc(S(=O)(=O)Nc2ccc3c(c2)CCC3)cc1	0.1	-8	-1.7	1.9%	5	11
CC(=O)c1c(C)[nH]c(C(=O)OCC(=O)Nc2cccc(S(=O)(=O)N(C)C)c2)c1C	0.9	-7	1.9	0.0%	15	4
COc1ccc(CNC(=O)CSCc2ccc(C)cc2)c(OC)c1	1.1	·	·	2.7%	2	·
CCOc1ccc(C2NC(=O)c3ccccc3O2)cc1OC (stereo unspecified)	-0.4	-21	-3.8	-0.7%	-1	15
CC12c3ccccc3C(c3ccccc31)C1C(=O)N(Cc3cccnc3)C(=O)[C@H]12 (stereo partly specified)	-0.4	-12	-3.2	1.8%	9	-9
CC(Oc1ccc2ccccc2c1)C(=O)NNC(=O)Nc1ccccc1F (stereo unspecified)	0.2	-16	-2.9	0.1%	14	2
CCOc1ccc(Nc2c(S(=O)(=O)c3ccc(C)cc3)cnc3cc(OC)c(OC)cc23)cc1	1.5	·	·	5.3%	6	·
Cc1cc(NC(=O)c2c(F)cccc2Cl)n(-c2nc3ccccc3[nH]2)n1	1.9	-1	-3.7	?	23	-2
CCCCCC(=O)N1CC2(C)CN(C(=O)CCCCC)CC(C)(C1)C2=O	1.4	14	-2.1	-1.9%	-14	1
COCCN(C(=O)COC(=O)c1ccc2ccccc2c1)c1c(N)n(Cc2ccccc2)c(=O)[nH]c1=O	-0.9	3	1.9	3.2%	5	12
COc1cccc(Cn2c(=O)sc3ccccc3c2=O)c1	2.8	6	1.2	2.1%	29	27
Cc1nnc(NC(=O)C23CC4CC(C)(CC(C)(C4)C2)C3)s1	-0.4	-1	0.5	5.4%	-5	-5
Nn1c(SCC(=O)N2CCCCCC2)nnc1-c1ccco1	1.0	-3	6.6	4.2%	2	2

The final 3 entries of the part before lead into the next:
SMILES	TRPML1 agonist	D2 PAM	D2 agonist	PINK1 modulator	TRPML1 blocker	Six1-Eya2 blk
COc1cccc(Cn2c(=O)sc3ccccc3c2=O)c1	2.8	6	1.2	2.1%	29	27
Cc1nnc(NC(=O)C23CC4CC(C)(CC(C)(C4)C2)C3)s1	-0.4	-1	0.5	5.4%	-5	-5
Nn1c(SCC(=O)N2CCCCCC2)nnc1-c1ccco1	1.0	-3	6.6	4.2%	2	2
O=C(CCCOC(=O)c1ccc(O)cc1O)c1ccc(Br)cc1	0.0	-14	-2.8	?	11	-13
CCOc1ccc(NC(=O)CN(C)C(=O)C2CC(=O)N(c3cccc(SC)c3)C2)cc1OCC (stereo unspecified)	-0.8	-3	-2.8	0.4%	6	-65*
CCOC(=O)Cc1csc(NC(=O)/C=C/c2ccccc2Cl)n1	2.5	-6	-3.3	2.0%	15	-4
O=S(=O)(NCc1cccnc1)c1ccc(Cl)c(Cl)c1Cl	3.7	-3	-0.5	-2.3%	27	5
COCCCNC(=O)c1c(NC(=O)Cc2coc3c(C)c(C)ccc23)sc2c1CCCC2	7.8	·	·	-0.8%	-9	·
CCN1CCN(Cc2c(C)[nH]c3ccc(C(=O)OC)cc3c2=O)CC1	-0.1	-15	-9.3	-2.0%	5	-1
O=C(c1ccccc1)c1cc(F)c(N2CCOCC2)cc1Cl	5.1	24	-2.4	1.2%	13	4
CCN1CCN(S(=O)(=O)c2ccc(Cl)c(C(=O)NC3CCCCC3)c2)CC1	-0.2	-12	-6.7	0.1%	57	4
C=CCOc1ccc(Cl)cc1CNC1CCCC1	0.8	-8	-4.7	-1.1%	-14	0
Cc1cc2nc(-c3ccc(SCC(=O)N4CCOCC4)nc3)[nH]c2cc1C	-0.2	2	-0.9	19%[38.3 µM]	-6	-16
Cc1ccccc1Cn1c(CN2CCC(C(=O)NCc3ccc(Cl)cc3)CC2)cc2ccccc21	3.6	·	·	0.6%	12	·
CC1(Br)C(Sc2ccccc2[N+](=O)[O-])=Nc2ccccc21 (stereo unspecified)	-0.1	·	·	29%	·	?
COc1cc(C(CC(=O)Nc2ncccc2C)N2Cc3ccccc3C2=O)cc(OC)c1OC (stereo unspecified)	0.6&1.6	-6	-2.1	3.2%&9.1%	12&2	1
Cc1ccc(NC2(C#N)C(=O)Nc3ccccc32)cc1C (stereo unspecified)	-0.3	-26	-12	0.4%	0	1
Cc1ccc(S(=O)(=O)N2CCOCC2)cc1NC(=O)COC(=O)c1cncc(Br)c1	0.5	-6	-1.3	1.8%	18	1
CCOc1ccccc1N1CCN(C(=O)c2cc3c(s2)CCC3)CC1	1.7	-2	0.6	0.7%	45	0
CCc1ccccc1Nc1nc2ccccc2n1C(C)C	-0.7	-13	-0.7	-0.8%	32	-4
CNS(=O)(=O)c1cn(CC(=O)NCc2ccc(F)cc2)cc1S(=O)(=O)NC	0.6	-5	2.9	1.2%	41	6
CC(=O)NNc1cccc(Cl)n1	-0.1	0	-1.7	0.5%	6	10
CN(C)c1ccc(CN(C(=O)c2cccs2)C2CCS(=O)(=O)C2)cc1 (stereo unspecified)	-0.6	0	-0.4	-1.7%	-4	-9
CCCc1nc(Cl)c(C#N)c2c1CCCC2	2.3	-4	2.8	-0.4%	-12	37
O=C(Nc1cccc(/C=C/c2ccccn2)c1)c1ccc(-n2cncn2)cc1	0.5	3	10	12%	?	0
COc1ccc(CN(C)CC(=O)Nc2cc3oc4ccccc4c3cc2OC)c(OC)c1	1.3	-26	-4.4	9.6%	-6	-17
CC1(C)Cc2c(c(=S)nc(-c3ccccc3)n2CCOCCO)CO1	-0.2	-20	-2.7	1.4%	4	1
CN(C)c1ccc(C2N(c3ccc(F)cc3)C(=O)C3CCCN32)cc1 (stereo unspecified)	0.2	-4	-1.6	0.2%	31	4
COCCNC(=O)CCc1nc2cccnc2n1Cc1ccc(OC)cc1	0.3&-0.9	-4	1.7	1.5%&2.6%	-5&7	-1
O=C(Nc1cccc(F)c1)C1CCN(c2nc3ccccc3nc2C(F)(F)F)CC1	0.1	·	·	23%	7	·
FC(F)(F)c1cc(Nc2ccccc2)nc(-c2ccccn2)n1	2.9	-8	4.6	-3.4%	11	-17
CCOc1cc(/C=C/c2cc(C(=O)O)c3ccccc3n2)ccc1OC	0.3	-9	-2.9	4.4%	-5	-21
COc1cccc2cc(C(=O)Nc3cccnc3N3CCOCC3)c(=O)oc12	0.7	-12	-4.0	2.8%	-5	2
CCOc1ccc(C(=O)Nc2nc(C)c(C(=O)OC)s2)cc1	17	-1	1.0	10%	36	-1
Cn1c(=O)c2cc(NC(=S)NC3CC3)ccc2n1Cc1cccc(C(F)(F)F)c1	-0.8	0	15	0.6%	·	2
COC(=O)C(C)(C)NC(=O)c1cccs1	0.2	1	-2.9	-4.3%	13	4
Cc1ccc(OCC(=O)Nc2ccc([N+](=O)[O-])cc2)cc1	0.8	-15	0.2	8.3%	23	2
O=[N+]([O-])c1nccn1CCCCCCN1CCOCC1	-0.1	-5	-1.8	-0.1%	·	-3
O=C(COC(=O)/C=C/c1cccc([N+](=O)[O-])c1)Nc1cccnc1Cl	-0.4	1	-0.8	-1.3%	-13	-1
COC(=O)COc1ccc2c(=O)c(Oc3ccccc3Br)coc2c1	-0.3	-1	8.3	2.9%	-5	-3
Cc1ccc(CNc2ccc(N3CCOCC3)cc2)s1	-0.4	18	2.1	-1.2%	48	?
COCCn1c(/C=C/c2ccccc2)nc2ccccc21	3.1	-4	-5.5	0.3%	-1	33
COC(=O)c1c(NC(=O)Cc2cccs2)sc2c1CCC(C)C2 (stereo unspecified)	-0.3	-9	-1.5	·	3	0

A few values from the list.
PINK1 modulator, Cn1c(=O)c2cc(NC(=S)NC3CC3)ccc2n1Cc1cccc(C(F)(F)F)c1 reads 0.6%
D2 PAM, O=[N+]([O-])c1nccn1CCCCCCN1CCOCC1 reads -5
TRPML1 agonist, Cc1ccc(OCC(=O)Nc2ccc([N+](=O)[O-])cc2)cc1 reads 0.8

Screens from PubChem.
